Bioassay records as filed in PubChem BioAssay.
ALR H2O2 inh: inhibitors of human ALR sulfhydryl oxidase, primary screen, biochemical, H2O2 detection, HRP-luminol luminescence, single point; 290,000 tested, 3.8% active; AID 485317, 2010; inhibition, % (concentration not given with the values); purified ALR, DTT oxidation;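 active = mean and each replicate at 75% or more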;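 also: stock transfer was 7.5 nL into about 7.5 µL; 0% = neutral wells and 100% = wells with inactivated enzyme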
Target sequence (P55789 whole entry, looked up): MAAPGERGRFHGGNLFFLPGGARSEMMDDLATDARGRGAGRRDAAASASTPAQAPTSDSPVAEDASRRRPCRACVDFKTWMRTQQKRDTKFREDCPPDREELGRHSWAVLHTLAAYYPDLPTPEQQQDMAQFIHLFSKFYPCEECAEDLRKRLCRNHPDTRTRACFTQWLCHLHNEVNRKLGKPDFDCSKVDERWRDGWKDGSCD
E coli growth: E. coli growth inhibition, primary screen, OD600. 330,000 tested, 0.21% active. AID 1053175, 2014. Escherichia coli growth, 23 h; active compounds read low. OD600 absorbance (no concentration beside the values);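 active = OD600 absorbance below the run mean of sample wells minus 3.6 SD, in any replicate, cut at about 0.56 in these data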;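 also: stock transfer was 300 nL into about 60 µL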
Ecoli rRNA inh: reduced GFP signal of wild-type E. coli, primary screen, bacterial rRNA inhibitor project, GFP/RFP fluorescence, OD600, single point; E. coli WT GFP vs humanized-ribosome RFP mutants, 24 h; active compounds read low; DMSO median 0, no signal -100; GFP signal change (wild-type ribosome), % (no concentration beside the values); 350,000 tested, 1.6% active;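 active = significant combined selectivity score with lowered wild-type GFP, culture density cut under 30%, mutant RFP and density less affected; inactive = any of these conditions unmet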; also: one replicate is shown; some compounds called inactive have numbers as strong as hits
FGF22 binding: binders of human FGF22 protein, primary screen, FGF22 synaptogenesis inhibitor project, biophysical, thermal shift, single point. recombinant FGF22 thermal shift, SYPRO orange fluorescence; percent of sucrose octasulfate shift, DMSO zero. AID 651658, 2012. calls only at 9.99 µM. Fibroblast growth factor 22 (Homo sapiens), Q9HCT0. 340,000 tested, 1.5% active;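 active = melting point raised past a set limit in the mean and every replicate; three in four hits are not shown here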
UCH37 DUB inh: inhibitors of human UCH37 deubiquitinase, primary screen, biochemical, Ub-AMC cleavage, fluorescence; AID 588478, 2011; purified proteasome/UCH37; inhibition, % (no concentration beside the values); 330,000 tested, 0.33% active; Ubiquitin carboxyl-terminal hydrolase isozyme L5 (Homo sapiens), Q9Y5K5;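 active = mean of two replicates above 20%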;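 also: 0% = compound-free wells with enzyme and 100% = wells lacking proteasome; stock transfer was 100 nL into about 20 µL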
Target sequence (Q9Y5K5 whole entry, looked up): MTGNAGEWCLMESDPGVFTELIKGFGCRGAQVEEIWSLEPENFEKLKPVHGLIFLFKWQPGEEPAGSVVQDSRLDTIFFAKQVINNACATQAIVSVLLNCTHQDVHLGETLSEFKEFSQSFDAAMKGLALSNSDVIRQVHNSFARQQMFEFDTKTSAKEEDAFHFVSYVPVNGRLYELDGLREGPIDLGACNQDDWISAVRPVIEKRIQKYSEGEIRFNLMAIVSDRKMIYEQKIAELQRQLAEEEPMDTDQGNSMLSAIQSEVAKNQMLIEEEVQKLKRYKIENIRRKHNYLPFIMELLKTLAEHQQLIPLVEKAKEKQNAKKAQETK
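System: Proteasome-associated human UCH37 deubiquitinase; Input: 0.15 nM proteasome in added enzyme buffer; Also added: Ub-AMC substrate from 1 µM stock; Incubation: 30 min compound-proteasome preincubation then 25 min substrate reaction, room temperature; Detection: fluorescence, ex 355 nm, em 460 nm; Read-out: % inhibition of Ub-AMC cleavage fluorescence; Benchmarks: no-proteasome and no-compound wells.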
Beta2AR agonist: beta2AR agonists driving receptor internalization, primary screen, cell-based, FAP fluorogen, flow cytometry; response, % (test concentration not listed); Am2.2-beta2AR cells; reference of the scale not given here; 340,000 tested, 0.43% active; Beta-2 adrenergic receptor (Homo sapiens), P07550;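 active = response above a set limit, near 3 SD of response in nonfluorescent compounds, cut at about 42% in these data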;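 also: stock transfer was 100 nL into about 11 µL; a reference agonist was the positive control; negative values mostly stem from fluorescent compounds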
HNF4A DNA FP: change in binding of human HNF4A to DNA, primary screen, biochemical, fluorescence polarization, FITC-DNA | Hepatocyte nuclear factor 4-alpha (Homo sapiens), P41235 | 1 h | activity change, % at 10 µM | 360,000 tested, 0.3% active | AID 1224865, 2016; in the data active = activity change above about 30%, passing the limit was not always enough;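 also: controls were the assay level and a saturating level of protein; the project sought stronger binding though the title names inhibitors; some compounds called inactive have numbers as strong as hits; positive values seem to mean higher polarization but the record does not say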
Target sequence (P41235 whole entry, looked up): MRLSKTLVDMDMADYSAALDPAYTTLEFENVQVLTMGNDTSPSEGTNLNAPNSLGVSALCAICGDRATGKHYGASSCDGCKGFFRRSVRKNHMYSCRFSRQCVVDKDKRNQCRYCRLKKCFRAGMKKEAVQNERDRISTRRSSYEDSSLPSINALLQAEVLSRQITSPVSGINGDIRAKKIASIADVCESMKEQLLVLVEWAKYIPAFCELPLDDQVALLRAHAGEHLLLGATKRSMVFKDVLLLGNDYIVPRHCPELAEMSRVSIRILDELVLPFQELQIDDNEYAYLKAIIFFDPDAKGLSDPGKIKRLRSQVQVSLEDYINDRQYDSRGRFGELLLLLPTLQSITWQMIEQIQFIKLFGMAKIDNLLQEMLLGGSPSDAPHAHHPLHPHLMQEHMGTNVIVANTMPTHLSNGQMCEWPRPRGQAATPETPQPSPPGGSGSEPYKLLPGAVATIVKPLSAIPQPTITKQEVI
Ecoli rRNA inh OD600: recorded beside Ecoli rRNA inh, whose call it bears; OD600 change, %; measured here: OD600 growth;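 optical density of the mix in the first replicate; 0 = DMSO median and -100 = no signal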
Ecoli rRNA inh RFP: second read-out of Ecoli rRNA inh, no call of its own (marks repeat the call); RFP signal change, %; measured here: RFP humanized mutant strains;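 first replicate; 0 = DMSO median and -100 = no signal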
An asterisk follows results filed as active; i = inactive; / = no result given.

compound	ALR H2O2 inh	E coli growth	Ecoli rRNA inh	Ecoli rRNA inh OD600	Ecoli rRNA inh RFP	FGF22 binding	UCH37 DUB inh	Beta2AR agonist	HNF4A DNA FP
O=C(Nc1ccc(F)c(Cl)c1)C1CCN(c2ncnc3c2nc2n3CCCCC2)CC1	-10	0.65	6	7	-0.5	i	0.0	5	-0.9
O=C(O)C1CCc2nc(NCc3ccccc3)nc(NCc3ccccc3)c2C1 (stereo not drawn)	/	0.67	0	-3	-2.2	i	3.2	-7	-0.8
Cc1nn(C)c(C)c1NC(=O)COc1ccc(Cl)cc1Br	/	0.69	-6	-5	-2.1	i	3.3	-11	-5.1
CC(/C=N/NC(=O)c1cc(-c2cccs2)[nH]n1)=C\c1ccccc1	-1	/	/	/	/	i	/	-1	0.8
Cc1ccsc1C(=O)N[C@@H](C)c1nnc2ccccn12	-3	0.74	4	1	-5.0	i	1.9	7	0.4
CC(C)=CC(=O)Nc1ccc2c(c1)OCO2	-6	0.62	/	/	/	/	0.1	18	-1.2
COc1cc(C(=O)OCC(=O)Nc2cc(-c3cc(C)c(C)cc3C)nn2-c2ccccc2)cc(OC)c1OC	-2	0.76	24	15	-1.9	i	1.2	24	1.7
O=C(CN(Cc1ccccc1)S(=O)(=O)c1ccc(F)cc1)NCc1ccccn1	-10	0.65	-1	-4	-1.6	i	-0.1	5	1.3
COc1ccc2[nH]c(=O)c(C(=O)O)cc2c1	-4	0.73	11	11	-2.9	i	-248	4	-1.0
CCn1c(SCC(=O)NC2CC2)nnc1-c1cccs1	-3	0.67	19	7	0.0	i	4.2	1	1.1
CC(Oc1ccc(C#N)cc1)C(=O)NC1CCCC1 (stereo not drawn)	/	0.68	14	14	0.5	i	1.1	2	-1.9
Cc1c(CCC(=O)NCCCN2CCCC2=O)c(=O)oc2cc(O)ccc12	35	0.71	/	/	/	i	i	4	3.2
Cc1ccc(C(=O)COC(=O)C2CC3CCCC(C2)C3=O)cc1[N+](=O)[O-] (stereo not drawn)	-5	/	4	5	0.1	i	/	-6	2.7
CC1CCCC(C)N1S(=O)(=O)c1ccc(NC(=O)CCN2C(=O)C3CC=CCC3C2=O)cc1 (stereo not drawn)	/	0.66	3	2	1.4	i	-0.5	3	0.6
COC(=O)c1ccccc1NC(=O)CCS(=O)(=O)c1cc2c(cc1C)NC(=O)CO2	-1	0.77	-2	9	9.8	i	-1.0	-2	-0.1
COCCOC(=O)c1sc2nc[nH]c(=O)c2c1C	-1	0.71	9	3	2.5	i	-5.3	-1	2.0
COc1ccc(-c2noc(CCc3ccccc3)n2)cc1	-3	/	-20*	5.2*	-2.9*	i	/	0	3.7
CCOc1ccc(C(C)=O)cc1CSc1nnc(N)s1	9	0.67	-4	2	4.2	i	4.2	-4	-0.3
Cn1cnnc1SCC(=O)c1ccc(O)c(O)c1	99*	0.65	16	14	4.6	i	9.6	-2	0.8
CCCc1ccc(C2C3=C(CC(C)(C)CC3=O)NC3=C2C(=O)c2ccccc23)cc1 (stereo not drawn)	-3	0.71	12	9	5.4	i	1.2	12	-0.3
Cc1ccc(C(=O)C(C)OC(=O)c2n[nH]c(=O)c3ccccc23)cc1 (stereo not drawn)	/	0.71	/	/	/	/	4.5	-5	0.3
C=CCNC(=O)CN1CCC(NC(=O)c2ccco2)CC1	/	0.71	4	5	-1.3	i	0.0	1	0.0
CN1C(=O)C2(C(C#N)=C(N)N(c3cc(Cl)cc(Cl)c3)C3=C2C(=O)CC(C)(C)C3)c2ccccc21 (stereo not drawn)	-3	0.69	/	/	/	/	1.6	4	-1.0
COc1ccc(C(=O)/C=C/N(C)C)cc1	6	0.65	1	-4	-1.5	/	19	0	0.6
COCCn1c(=O)[nH]c2cc(C(=O)N3CCN(c4ccccc4OC)CC3)ccc2c1=O	2	0.68	/	/	/	/	1.7	12	4.8
Cc1cc(C)nc(SCC(=O)Nc2nccs2)n1	4	0.65	0	2	2.5	i	0.3	-2	-1.2
Cc1ccc(S(=O)(=O)c2nc(-c3cccs3)oc2NCc2cccnc2)cc1	2	0.7	-26	-25	4.8	i	-16	-7	-1.9
O=C1CCN(CCc2ccccc2)CCN1[C@H](COc1ccccc1)Cc1ccccc1	-1	0.78	-35	-70	-17	i	5.5	0	1.9
Cc1ccc2oc(NC(=O)N3CCOCC3)cc(=O)c2c1	1	0.72	/	/	/	/	-13	-8	-0.1
Cc1ccc(C(NC(=O)C2CCN(CCCOc3ccccc3)CC2)c2ccccn2)cc1 (stereo not drawn)	/	/	16	23	1.7	i	/	/	0.7
O=C(CCN1C(=O)C2CCCCC2C1=O)Nc1nc2ccc(F)cc2s1 (stereo not drawn)	-1	0.63	14	9	2.5	i	0.2	-2	1.6
O=S(=O)(c1ccc2c(c1)OCCO2)N1CCC(O)(c2ccc(Cl)cc2)CC1	-9	0.71	/	/	/	/	4.3	-2	4.9
COC(=O)N/N=C/c1cn(CCOc2ccccc2OC)c2ccccc12	11	/	-3	-5	1.9	i	/	2	-1.2
Cc1ccc(C(=O)NCCc2ccccn2)cc1S(=O)(=O)N1CCOCC1	-5	0.73	/	/	/	/	2.0	/	/
CCN(CC)CCNC(=O)C1CCC(=O)N1CCc1ccccc1 (stereo not drawn)	/	0.73	/	/	/	/	2.8	0	-0.4
CCCc1cc(C(=O)OCC(=O)N2CCN(c3ccc(OC)cc3)CC2)sc1C	1	0.65	3	7	1.1	i	1.3	-1	-3.0
CCC(=O)c1ccc(OCc2ccc(C(=O)OC)o2)c(OC)c1	-1	0.7	/	/	/	/	-1.5	-4	-0.6
CCn1ncc(C2C(C(=O)Nc3ccc(C)cn3)=C(C)NC3=C2C(=O)CCC3)c1C (stereo not drawn)	-1	0.69	/	/	/	/	-198	-21	-2.4
Cc1ccc(S(=O)(=O)N2CCCC2C(=O)Nc2nc3ccccc3s2)cc1 (stereo not drawn)	/	0.72	-16	-33	9.7	i	-2.9	-12	-21
CCOC(=O)N1CCN(c2cc(=O)n(-c3cccc(Br)c3)c(=O)[nH]2)CC1	12	0.72	8	4	-1.5	i	-2.7	-4	-6.1
Cc1ccc(OCCn2cnc3sc(C(N)=O)c(C)c3c2=O)cc1	-4	/	8	-2	2.2	/	/	/	/
CC(C)(C)SCCNC(=O)c1ccc(Cl)c(S(=O)(=O)N2CCOCC2)c1	-2	0.74	/	/	/	/	6.8	-5	1.5
CC1CCCCC1NC(=S)NC(=O)c1sc2ccccc2c1Cl (stereo not drawn)	-8	0.75	1	6	-3.5	i	1.2	2	3.0
CCOC(=O)N1CCN(C(=O)CSc2ccc(-c3cccc(OC)c3)nn2)CC1	-7	0.68	-15	-4	0.6	i	2.2	-14	-0.8
COc1ccc(Oc2ccc(N/C=C/C(=O)C(C)(C)C)cc2)cc1	-11	0.71	9	9	2.8	i	-2.1	4	0.7
CC(C)c1ccc(C2(C)NC(=O)N(C(C)C(=O)Nc3ccc(N4CCOCC4)cc3)C2=O)cc1 (stereo not drawn)	/	0.68	2	-6	4.5	i	2.8	-2	-4.2
O=C(CCNS(=O)(=O)c1cccc2nonc12)NC1CCCc2ccccc21 (stereo not drawn)	-16	0.7	/	/	/	/	2.1	1	-0.4
CC(C)c1ccc(NC(=O)COC(=O)Cn2cnc3c2c(=O)n(C)c(=O)n3C)cc1	/	/	8	6	-1.3	i	/	/	-1.3
CCCS(=O)(=O)NC(=O)C1(C)CCN(C(=O)c2ccc(C(=O)OC)cc2)C1 (stereo not drawn)	/	/	5	25	-2.9	i	/	/	1.0
CC(=Cc1cccs1)C(=O)c1ccccc1	/	/	-9	-13	-1.6	/	/	/	0.6
CC1CCCCC1NC(=S)Nc1cccc(S(=O)(=O)N(C)C)c1 (stereo not drawn)	/	0.69	-28	-49	-4.7	i	-0.1	-1	1.8
CC(C)Oc1ccc(F)cc1-c1cc(C(=O)NCc2ccc(F)cc2)[nH]n1	/	/	-7	-47	-0.5	i	/	/	3.2
O=C1C(NS(=O)(=O)c2ccc(Cl)cc2)=C(N2CCCCC2)C(=O)c2ccccc21	-10	0.67	-45	-71	-18	i	12	8	-2.7
CCOC(=O)C(C)Sc1nc(=O)n2cc(C)ccc2n1 (stereo not drawn)	0	0.68	14	16	2.5	i	-14	-4	3.6
O=C(CNCc1ccco1)Nc1cc(S(=O)(=O)N2CCOCC2)ccc1N1CCCC1	/	0.68	6	12	-6.3	i	2.9	-1	0.9
CC(NC(=O)COC(=O)Cc1ccc(Cl)cc1)c1ccccc1 (stereo not drawn)	-1	0.69	-21	-24	4.2	i	4.6	1	4.7
COc1cc(C(=O)Nc2ccc3c(c2)OCO3)c([N+](=O)[O-])cc1OC	-11	0.67	5	2	-2.5	i	6.2	9	0.1
COCCn1c(Cc2ccccc2)nnc1SCC(=O)NC1CC1	3	0.72	4	4	1.9	i	-0.2	-1	-7.5

Of the compounds above, these have an NH in an aromatic ring.
compound	ALR H2O2 inh	E coli growth	Ecoli rRNA inh	Ecoli rRNA inh OD600	Ecoli rRNA inh RFP	FGF22 binding	UCH37 DUB inh	Beta2AR agonist	HNF4A DNA FP
CC(/C=N/NC(=O)c1cc(-c2cccs2)[nH]n1)=C\c1ccccc1	-1	/	/	/	/	i	/	-1	0.8
COc1ccc2[nH]c(=O)c(C(=O)O)cc2c1	-4	0.73	11	11	-2.9	i	-248	4	-1.0
COCCOC(=O)c1sc2nc[nH]c(=O)c2c1C	-1	0.71	9	3	2.5	i	-5.3	-1	2.0
Cc1ccc(C(=O)C(C)OC(=O)c2n[nH]c(=O)c3ccccc23)cc1 (stereo not drawn)	/	0.71	/	/	/	/	4.5	-5	0.3
COCCn1c(=O)[nH]c2cc(C(=O)N3CCN(c4ccccc4OC)CC3)ccc2c1=O	2	0.68	/	/	/	/	1.7	12	4.8
CCOC(=O)N1CCN(c2cc(=O)n(-c3cccc(Br)c3)c(=O)[nH]2)CC1	12	0.72	8	4	-1.5	i	-2.7	-4	-6.1
CC(C)Oc1ccc(F)cc1-c1cc(C(=O)NCc2ccc(F)cc2)[nH]n1	/	/	-7	-47	-0.5	i	/	/	3.2

Not all compounds are listed. The share of hits here may be higher or lower than overall.
